High-throughput results from PubChem.
Calb biofilm kill: clotrimazole potentiators killing C. albicans biofilm, primary screen, 4-compound mixtures; C. albicans biofilm persisters + clotrimazole, fluorescence viability; primary screen in compound mixtures of four per well; inhibition, % at 7.6 µM; hit rate 0.02% among 120,000; AID 1242, 2008;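 active = inhibition above 30.3% in the primary screen of four-compound pools, then above 30% when the compound was retested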;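 note: compounds exposed to preformed 24 h biofilms for 48 h; the number belongs to the whole pool; some results filed as inactive read as strong as hits; inactives centre near 12; 0% = biofilm with clotrimazole alone and 100% = kill control; retested singly at about 60 µM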
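Assay system: C. albicans biofilms / Medium: RPMI/MOPS medium, pH 7.0 / Schedule: biofilm formation 24 h, compound exposure 48 h, 37 °C / Measured by: Alamar Blue fluorescence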
* marks the source's active call; other numbers are inactive results. This is a subset (hit frequency here may not be typical).

canonical_smiles	Calb biofilm kill
COc1cc(/C=N/NC(=O)c2[nH]nc3c2CCc2ccccc2-3)ccc1O	10.6
CCN(CC(=O)NCc1ccc(F)cc1)Cc1cc(=O)n2ccsc2n1	11.5
CCCS(=O)(=O)N1CCC(C(=O)NCc2ccc(F)cc2)CC1	0.4
CCCN1CCN(C(=O)c2cc(COc3ccc4ncccc4c3)on2)CC1	13.9
NNC(=O)COc1ccccc1[N+](=O)[O-]	6.4
CC(OC(=O)c1cccc(S(=O)(=O)Nc2ccccc2F)c1)C(=O)NCc1ccc2c(c1)OCO2 (centres undefined)	14.0
CS(=O)(=O)N(CC(=O)Nc1ccc(S(=O)(=O)N2CCCC2)cc1)c1ccccc1F	6.4
CO/N=C/CC(=O)c1ccc(-c2ccccc2)cc1	6.5
CC1CCCN(CCC(=O)Nc2ccccc2)C1 (centres undefined)	34.3
Cc1[nH]c2ccccc2c1CCCO	17.0
CCn1cc(C(=O)N2CCN(c3ccc(OC)cc3)CC2)c2cc(OC)c(OC)cc2c1=O	3.7
Cc1ccc(S(=O)(=O)NC(N)=NCCc2ccccc2)cc1C	17.9
COCc1cccc(N2C(=O)CC(C3C=C(C)C4C(=O)N(c5cccc(COC)c5)C(=O)C4C3)C2=O)c1 (centres undefined)	12.6
Cc1cc([N+](=O)[O-])nn1CC(=O)N1CCN(Cc2ccccc2)CC1	-10.9
CCOC(=O)c1sc(NC(=O)COC(=O)CNC(=O)C2CCCCC2)c(C(=O)OCC)c1C	22.6
O=C(NNC(=O)C1CCCCC1)c1ccco1	8.6
O=C(COC(=O)c1cc2ccccc2oc1=O)Nc1cccc(S(=O)(=O)N2CCCCCC2)c1	11.2
O=C(O)CNC(=S)N(Cc1ccco1)Cc1ccccc1Cl	14.6
COc1cccc(-c2nc(N3CCN(C)CC3)c3ccccc3n2)c1O	14.0
CC(=O)c1c(OC(=O)c2ccccc2Br)ccc2c(C)cc(=O)oc12	13.8
CCOc1ccc(NC(=O)Nc2ccccc2C(N)=O)cc1	10.4
CC1=NN(S(=O)(=O)c2ccc(C)cc2)C(=O)c2ccccc2O1	18.6
CC(/C=N/n1c(-c2ccc(C)cc2)n[nH]c1=S)=C\c1ccco1	12.8
Cc1ccc(CC2SC(=Nc3ccccc3)N(c3ccccc3)C2=O)cc1 (centres undefined)	14.9
C/C(CC(=O)Nc1cccc(F)c1)=N\NC(=O)C(=O)NC1CCCCC1	-1.0
CCOCCCNC(=S)N1CCCN(c2nc3cc(C)c(C)cc3cc2C#N)CC1	4.7
COc1ccc(N2C(=O)C(CC(=O)Nc3ccccc3)N(Cc3ccccn3)C2=S)cc1 (centres undefined)	26.1
Cn1c(C(=O)NCCN2CCN(Cc3ccccc3)CC2)cc2c(=O)n(C)c3ccccc3c21	2.8
COc1cc(N(C)C)c([N+](=O)[O-])cc1C(=O)NC(C)CNc1ccc([N+](=O)[O-])cc1Cl (centres undefined)	9.6
CC1CC(NC(=O)Cc2ccc(Br)cc2)CC(C)(C)C1 (centres undefined)	8.4
COCCn1c(SC(C(=O)Nc2cc(C)ccc2OC)c2ccccc2)nnc1-c1ccc(Cl)cc1 (centres undefined)	6.1
COc1cccc(C2CC(C(F)(F)F)n3ncc(C(=O)Nc4c(C)n(C)n(-c5ccccc5)c4=O)c3N2)c1 (centres undefined)	3.7
CCOc1ccc(C(=O)Nc2cccc(-c3ccc4nncn4n3)c2)cc1	4.7
Cc1cc(N/N=C/c2ccccc2F)c2ccccc2n1	-1.4
COCc1nnc(NC(=O)c2cc(C(=O)OC)cc([N+](=O)[O-])c2)s1	15.6
Cc1ccc(NC(=S)NC(NC(=O)N(C)C)C(Cl)(Cl)Cl)cc1 (centres undefined)	14.1
CNS(=O)(=O)c1cc(N)ccc1C	18.2
Clc1ccccc1Cn1nc(-c2ccccc2)nc1-c1ccccc1	15.5
CC(C)(C)C(=O)NC1=NN(c2c(Cl)cc(Cl)cc2Cl)C(=O)C1	3.5
Clc1cccc(N/N=C(\Cc2nc3ccccc3[nH]2)c2ccccc2)c1	8.7
CCCCCCCNC(=O)C1CC(=O)N(C)C(=Nc2ccc(OC)cc2)S1 (centres undefined)	16.9
C#CC[N+](CC)(CC)CC#Cc1ccccc1	-3.4
O=C(Nc1nc(-c2ccc(F)cc2)cs1)c1cccnc1	3.4
Cc1cc(N2CCN(C(c3ccccc3)c3ccc(Cl)cc3)CC2)n2ncnc2n1 (centres undefined)	7.8
COc1cc2c(cc1OC)CN(Cc1cc(OC)c(O)c(OC)c1)CC2	19.0
COC(=O)c1cc2c(N)c(C(=O)c3ccccc3)sc2nc1C(OC)OC	16.2
O=S(=O)(NCCSc1ccccn1)c1ccc(Cl)cc1	17.2
CCCc1[nH]nc2c1C(c1ccsc1)C(C#N)=C(N)O2 (centres undefined)	13.7
O=C(Nc1ccccc1)c1cc2n(n1)C(C(F)(F)F)CC(C1CC1)N2 (centres undefined)	29.9
Cc1ccc(S(=O)(=O)N2CC(O)CC2C(=O)OCC(=O)c2ccccc2Cl)cc1C (centres undefined)	10.0

Remaining list, next part:
canonical_smiles	Calb biofilm kill
O=C(NCCCn1ccnc1)c1cc(-c2ccncc2)nc2ccccc12	0.0
O=C(/C=C/c1cccs1)NC(=S)NNC(=O)Cc1cccs1	12.0
CC1=NN(C(N)=S)C(=O)C1N=Nc1ccccc1 (centres undefined)	3.8
CCn1c(CNc2ccc(Cl)cc2)nnc1SCCN1CCCCC1	12.9
CCOC(=O)c1oc2cc(O)c(CC)cc2c(=O)c1-c1cscn1	9.2
CC(C)(C)C(=O)Nc1ccccc1C(=O)Nc1ccccn1	18.7
COC(=O)c1ccc(Cn2nnc3ccccc32)cc1	29.9
CC(=O)Nc1sc2c(c1C#N)CCC(C)C2 (centres undefined)	12.5
S=C(NCCN1CCOCC1)Nc1ccc(Cl)c(Cl)c1	7.9
NNC(=O)C1CCCN1S(=O)(=O)c1ccc(Cl)cc1 (centres undefined)	15.9
O=C(CSc1ccc(-c2ccccn2)nn1)NC1CCCCC1	15.5
O=C(CC12CC3CC(CC(C3)C1)C2)N/N=C/c1ccncc1	3.7
CC(C)(C)c1ccc(/C=C/C(=O)O)s1	9.5
Cc1cc(C)cc(C(=O)NC2C(=O)N3C(C(=O)O)=C(CSc4nnc(C)s4)CSC23)c1 (centres undefined)	8.7
CCC(=O)Nc1ncc2c(n1)CC(c1ccco1)CC2=O (centres undefined)	10.8
CN1C(=O)C(CC(=O)NCCc2ccccc2)N(NC(=O)c2ccc(Cl)cc2)C1=S (centres undefined)	16.7
CC(C)(C)c1cc(C(=O)Nc2ccc(F)cc2)n(Cc2ccc(F)cc2)n1	6.9
Cc1cc(=O)oc2cc(OC(=O)c3ccco3)ccc12	16.6
Nc1ncncc1-c1ccc(Cl)cc1	14.8
O=C1CC(NNC(=O)c2ccc(Br)cc2)C(=O)N1 (centres undefined)	17.7
COc1ccc(C(CCN2CCOCC2)c2c(OC)cc(OC)c3c(C)cc(=O)oc23)cc1 (centres undefined)	15.1
CCOC(=O)C1(CCc2ccccc2)CCN(C(=O)c2cnc(C)cn2)CC1	15.4
COc1ccc(N2C(=O)C(CC(N)=O)N(NC(=O)c3cccc(OC)c3)C2=S)cc1 (centres undefined)	15.4
CCC1=NN(C(=O)CCc2ccc3c(c2)OCO3)C(O)(C(F)(F)F)C1 (centres undefined)	13.1
CCOC(=O)c1cn(C2CC2)c2c(F)c(F)c(F)cc2c1=O	1.3

Three structures from above, sorted by formula weight, high to low:
canonical_smiles	Calb biofilm kill
CCC1=NN(C(=O)CCc2ccc3c(c2)OCO3)C(O)(C(F)(F)F)C1 (centres undefined)	13.1
O=C1CC(NNC(=O)c2ccc(Br)cc2)C(=O)N1 (centres undefined)	17.7
CC(C)(C)c1ccc(/C=C/C(=O)O)s1	9.5

Next section.
canonical_smiles	Calb biofilm kill
Cc1cc(N2CCN(c3ccc([N+](=O)[O-])c4cccnc34)CC2)c2ccccc2n1	15.8
N#C/C(=C\c1ccc(OCc2ccc(C(=O)O)cc2)cc1)C(=O)N1CCOCC1	8.5
COc1ccc2nc(Nc3sc4c(c3C(N)=O)CCCC4)sc2c1	11.0
Cc1cc(/C(N)=N/OC(=O)c2cccc(Cl)c2)no1	9.9
Cc1cccc(N2CCN(C(=S)Nc3ccc4nc(N5CCOCC5)cc(C)c4c3)CC2C)c1 (centres undefined)	7.2
COc1cccc(NC(=O)C2CCCCC2)c1	15.9
CCOc1cc(-c2nc3ccccc3s2)ccc1O	14.3
CC(C)(C)c1ccc(C(=O)Nc2ccc([N+](=O)[O-])cn2)cc1	10.4
N#C/C(=C/c1cccc([N+](=O)[O-])c1)C(=O)Nc1ccccc1O	30.5
COc1cccc(C2CCCN2Cc2nc(-c3sccc3C)oc2C)c1 (centres undefined)	6.0
CCOc1cccc(-c2cc(C(=O)N3N=C(C)CC3(O)C(F)F)c3ccccc3n2)c1 (centres undefined)	9.0
CN(C)CCOC(=O)c1ccc2c(c1)S(=O)(=O)c1ccccc1C2=O	16.4
CC(=O)Nc1ccc2nc(-c3ccc(Br)o3)[nH]c2c1	13.1
CCCCCCC12CCC(C(=O)O)(CC1)CC2	13.1
COc1ccc(CC2(CO)CCN(Cc3ccc4nsnc4c3)CC2)cc1	22.4
O=c1c(C=NCCN2CCNCC2)c(-c2ccccc2)[nH]n1-c1ccc([N+](=O)[O-])cc1	23.8
COc1ccc(NC(=O)CC2C(=O)N(Cc3ccccc3)C(=S)N2CCN2CCOCC2)cc1 (centres undefined)	9.0
CC(C)CNC(=S)N1CCN(C(c2ccccc2)c2ccccc2)CC1	2.6
CC1CN(c2ccc(C(=O)c3ccccc3C(=O)O)cc2[N+](=O)[O-])CC(C)O1 (centres undefined)	20.4
COc1ccc(C2=NN(CC(=O)Nc3ccccc3C)C(=O)CC2)cc1	15.1
CCCNC(=O)CNC(=S)N(Cc1cc(OC)c(OC)c(OC)c1)C1CCCC1	7.4
C#CCSc1nc(C)cc(C(=O)OCC)c1C#N	20.2
CCOC(=O)C(Cc1ccc(O)cc1)NC(=O)CNC(=O)C(CC(C)C)NC(=O)OC(C)(C)C (centres undefined)	2.5
Cc1cccc(-c2nsc(SCC(=O)Nc3ccc4c(c3)OCO4)n2)c1	-15.2
S=C1NC[C@H](c2ccccc2)N1CC1CCCCC1	24.7
COc1cccc(/C=C/C(=O)OC(C)C(=O)Nc2c(C)n(C)n(-c3ccccc3)c2=O)c1 (centres undefined)	-6.4
COCCCn1c(=O)/c(=C\c2ccc(OC(F)F)c(OC)c2)s/c1=C(/C#N)C(N)=O	18.0
Cc1cc(NC(=O)c2ccc(Cl)c([N+](=O)[O-])c2)no1	24.4
N/C(CSc1ncccc1C(F)(F)F)=N\O	20.1
COc1ccc(NC(=S)Nc2ccc3cn[nH]c3c2)cc1	14.2
O=C(O)CCC(=O)Nc1ccc(Br)cc1C(=O)c1ccc(Cl)cc1	34.6
COC(=O)c1nn(-c2ccccc2)c(=O)cc1O	-5.6
COC(=O)Cn1c(=NC(=O)c2ccc(S(=O)(=O)N3CCc4ccccc4C3)cc2)sc2cc(OC)ccc21	16.7
CCOC(=O)C1(CCCc2ccccc2)CCN(C(=O)[C@@H]2C[C@@H](C)NC(=S)N2)CC1	-9.8
Brc1cnc2nc(SCc3nc4ccccc4[nH]3)[nH]c2c1	20.3
Cc1cc2nc(SCCN3CCOCC3)[nH]c2cc1C	11.3
CN(C)S(=O)(=O)Oc1ccccc1C(=O)Nc1ccccc1Cl	17.1
Cc1ccc(C(=O)NCCNc2nc3cc(C)c(C)cc3cc2C)cc1	8.0
C=CCSc1nnc(NC(=O)Cn2cnc3c2c(=O)n(C)c(=O)n3C)s1	9.4
O=C(COC(=O)c1ccc([N+](=O)[O-])s1)NC(c1ccccc1)c1ccccc1	6.0
O=C(CCN1CCOCC1)NCC1COc2ccccc2O1 (centres undefined)	13.3
O=C(/C(Cl)=C/Nc1ccc(Br)cn1)C(F)(F)F	12.8
Cc1ccc(S(=O)(=O)Nc2ccc(Cl)cc2C(=O)c2ccccc2)cc1	12.4
O=C1OC(Cc2ccccn2)C(O)=C1C1=NCCCN1 (centres undefined)	20.1
CCOC(=O)CC(=O)CSc1n[nH]c(=O)[nH]c1=O	31.3
Cc1nc(OCc2c(C)noc2C)c2ccccc2n1	6.0
CN(C)CCNC(=S)NC1CCCCC1	12.2
O=C(O)c1ccc2c(c1)C(=O)N(c1ccccc1-c1ccccc1)C2=O	18.7
CC(=O)n1cc([C@H]2C=C(C(=O)O)O[C@@H](OCCCCO)C2)c2ccccc21	18.2
CC(C)CSC1=NSC2=NC(=O)/C(=C\c3coc4ccccc4c3=O)C(=N)N12	15.5

The listing continues:
canonical_smiles	Calb biofilm kill
CCOC(=O)c1ccc(NC(=S)NCCCn2ccnc2)cc1	22.4
O=c1[nH][nH]cc1C=Nc1ccc(Cl)cc1Cl	13.4
Cc1ccc(N2CC(=O)N(NC(=O)Nc3ccc(Cl)c(Cl)c3)CC2=O)cc1	18.5
O=C(NC(NNc1ccc([N+](=O)[O-])cc1)(C(F)(F)F)C(F)(F)F)c1ccc(F)cc1	7.3
CNC(=O)C(=O)Nc1c(O)c2ccccc2[nH]c1=O	11.3
Cc1ccccc1NC(=O)CSCCN1C(=O)c2ccccc2C1=O	8.8
CC1(C)C2CC=C(/C=N/NC(=O)c3ccccc3Br)C1C2 (centres undefined)	10.6
COc1ccc2nc(N/C(N)=N/C(=S)Nc3cccc(C)c3)nc(C)c2c1	7.9
